2A StopGo: lowers the luciferase signal of an FMDV 2A StopGo reporter | human cells with a luciferase reporter of 2A StopGo recoding; control for the full effect not named in the record | Potency, µM (titrated, usually from 57.9 µM), for the others: top-dose signal change, negative = less light | 410,000 compounds, 1.2% hits | AID 1159524; active = well fitted falling curve with a large enough effect; inconclusive = small, poorly fitted or top-dose-only effect; inactive = no such curve, though single readings can be large or run the other way; tested in HEK293T cells; also: % is scaled to controls: 0 for no effect and ±100 for the full control effect; nearly all actives have a fitted effect of over 45% in size; luciferase light after 4 h
Cruzain Triton: cruzain (T. cruzi) inhibition with detergent. P25779. purified cruzain, Z-FR-AMC fluorescence, 0.01% Triton. Potency, µM, inactives show max response, negative = inhibition, usual class: inhibitors. 200,000 compounds, 0.43% hits;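 also: plate controls were neutral wells for no effect and buffer without enzyme for full effect; nearly all actives have a fitted effect of over 40% in size; top concentration of the series not given in the record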
Target sequence (P25779 123-467 limits assumed): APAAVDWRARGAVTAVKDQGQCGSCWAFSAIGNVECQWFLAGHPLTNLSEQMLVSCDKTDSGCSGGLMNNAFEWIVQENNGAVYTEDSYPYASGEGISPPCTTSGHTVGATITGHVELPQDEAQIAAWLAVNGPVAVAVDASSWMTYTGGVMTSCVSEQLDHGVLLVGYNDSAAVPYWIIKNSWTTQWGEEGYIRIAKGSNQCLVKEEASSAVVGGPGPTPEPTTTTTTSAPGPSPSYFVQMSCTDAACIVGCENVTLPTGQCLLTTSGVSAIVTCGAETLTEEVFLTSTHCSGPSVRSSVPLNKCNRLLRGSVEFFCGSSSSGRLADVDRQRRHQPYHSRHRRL
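Enzyme 1.5 nM, Z-FR-AMC 2 uM, NaOAc 100 mM pH 5.5, DTT 5 mM, Triton X-100 0.01%; 15 min RT compound preincubation; kinetic ex360/em450, 60 s delta.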
RE007 growth inh: less growth of the S. pombe RE007 Vpr strain. S. pombe RE007 Vpr strain, BacTiter-Glo ATP luminescence, 24 h; control for the full effect not named in the record. Potency, µM (series often up to 92.2 µM), for inactives: top-dose activity change, negative = less growth. 360,000 compounds, 0.21% hits; active = well fitted falling curve with a large enough effect; inconclusive = small, poorly fitted or top-dose-only effect; inactive = no such curve, though single readings can be large or run the other way;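 also: % is scaled to controls: 0 for no effect and ±100 for the full control effect; nearly all actives have a fitted effect of over 50% in size; the assay follows cell death caused by Vpr and the record does not say whether a fall means rescue or toxicity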
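Fission yeast strain RE007, carrying one chromosomally integrated HIV-1 vpr copy, was seeded at OD 0.01 in PMG+AL medium with 23 nL pinned compound. After 24 h at 30 °C and 99% humidity, viability was read by BacTiter-Glo luminescence.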
SARS PLpro yeast: blocks SARS-CoV papain-like protease in a yeast assay; S. cerevisiae expressing SARS-CoV PLpro, growth rescue; control for the full effect not named in the record; Potency, µM (titrated, usually from 32.9 µM), without a hit: at the top dose activity, positive = growth rescue; 330,000 compounds, 0.19% hits; active means well fitted rising curve with a large enough effect; inconclusive means small, poorly fitted or top-dose-only effect; inactive means no such curve, though single readings can be large or run the other way; also: 0% is about no effect; nearly all actives have a fitted effect of over 55% in size; growth read by luminescence after 48 h
Marburg entry inh: blocks Marburg virus binding to or entry into cells | 300,000 compounds, 1.8% hits | Marburg virus pseudotyped entry inhibition, cell reporter; control for the full effect not named in the record; about a third of the inactives were read at about 46 µM | AID 540276 | Potency, µM (highest dose often 37.8 µM), for inactives: top-dose activity change, negative = inhibition, hits mostly inhibitors; active = well fitted inhibition curve with a large enough effect; inconclusive = small, poorly fitted or top-dose-only effect, or effect the other way; inactive = flat fitted curve, though single readings scatter; tested in HEK293 cells; about a fifth of its hits are not listed in these tables; also: % is scaled to controls: 0 for no effect and ±100 for the full control effect; luciferase read-out
Cruzain inh noDet: blocks cruzain activity in detergent-free assay; Potency, µM, for inactives: max response, negative = inhibition, actives largely listed as inhibitors; purified cruzain, Z-FR-AMC fluorescence, no detergent; AID 1476; P25779; 200,000 compounds, 2.3% hits;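 also: plate controls were enzyme without inhibitor for no effect and buffer without enzyme for full effect; nearly all actives have a fitted effect of over 40% in size; top concentration of the series not given in the record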
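Detergent-free condition (0.00005% Triton X-100) in acetate buffer pH 5.5 with DTT. 1.5 nM enzyme and compound were pre-mixed 15 min, then 2 uM Z-FR-AMC substrate added; reaction progress from fluorescence change between first and third reads (60 s).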
NS1 function inh: influenza NS1 inhibition | S. cerevisiae slowed by influenza A NS1, growth recovery by OD600 | Potency, µM (series often up to 46.1 µM), for the others: top-dose activity, positive = more growth | 270,000 compounds, 0.4% hits | AID 2326; active means well fitted rising curve with a large enough effect; inconclusive means small, poorly fitted or top-dose-only effect; inactive means no such curve, though single readings can be large or run the other way; also: nearly all actives have a fitted effect of over 50% in size
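Read-out: OD600 growth recovery of NS1-expressing budding yeast. Cells grown overnight at 30C in -URA glucose medium, washed, resuspended and diluted 1:100 in 2% galactose assay medium, pH 6.0. Same strain lacking NS1 served as positive control.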
LASV entry inh: blocks Lassa virus binding to or entry into cells; AID 540256; 300,000 compounds, 1.2% hits; Lassa virus pseudotype entry inhibition, cell reporter; control for the full effect not named in the record; Potency, µM (highest dose often 37.9 µM), without a hit: at the highest dose activity change, negative = inhibition, actives largely listed as inhibitors; active means well fitted inhibition curve with a large enough effect; inconclusive means small, poorly fitted or top-dose-only effect, or effect the other way; inactive means flat fitted curve, though single readings scatter; tested in HEK293 cells; also: % is scaled to controls: 0 for no effect and ±100 for the full control effect; nearly all actives have a fitted effect of over 50% in size; luciferase read-out
* marks the source's active call; other numbers are inactive results; ? = inconclusive; / = not tested or not shown; [ ] = another dose, or the depositor's remark. Unless noted, calls follow the shape of the dose curve; as a rule, active = well fitted curve in the direction sought with a large enough effect; inconclusive = small, poorly fitted or top-dose-only effect, or another doubt; inactive = no such curve, though single readings can be large; an effect the other way counts as inactive or inconclusive. Potency is read from the fitted curve at half-maximal effect.

Letters: A = 2A StopGo; B = Cruzain Triton; C = RE007 growth inh; D = SARS PLpro yeast; E = Marburg entry inh; F = Cruzain inh noDet; G = NS1 function inh; H = LASV entry inh
C=CCn1c(CSc2nc3ccccc3s2)nnc1SCC(=O)OCC
  A: 4%; B: 0.2%; C: 9%; D: 1%; E: ?; F: -3%; G: -14%; H: 26%

CSc1cccc(CN(C)C(=O)C2CCC(=O)N(CCCN3CCCC3=O)C2)c1 (stereo not given)
  A: -15%; B: /; C: 7%; D: -1%; E: /; F: /; G: 6%; H: /

O=C(COc1ccc(Br)cc1)Nc1nnc(-c2cccnc2)s1
  A: -14%; B: /; C: -1%; D: -1%; E: /; F: /; G: -5%; H: /

CCOC(=O)CNC(=O)CSc1nnc(C)c(=O)[nH]1
  A: -22%; B: 2.3%; C: -2%; D: 7%; E: -3%; F: 3%; G: -7%; H: 8%

NNC(=O)c1cc2cc(OC(F)(F)F)ccc2[nH]1
  A: 11%; B: /; C: -6%; D: -1%; E: -17%; F: /; G: 12%; H: ?

COC(=O)C=C1CCC2C3CCC4=CC(=O)C(Br)CC4(C)C3C(=O)CC12C (stereo not given)
  A: ?; B: /; C: 13%; D: /; E: 11µM*; F: /; G: /; H: ?

Cc1ccc(S(=O)(=O)CC(=O)Nc2nc3ccccc3s2)cc1
  A: 5%; B: /; C: -19%; D: -1%; E: ?; F: /; G: 4%; H: 12%[46.1 µM]

Cc1ccc(Nc2nc(N)c([N+](=O)[O-])c(NCCO)n2)cc1
  A: 57%[activator]; B: /; C: 6%; D: 0%; E: /; F: /; G: -4%; H: /

CCOC(=O)NC1(C(F)(F)F)NC(=O)N(c2ccc(C)c(C)c2)C1=O (stereo not given)
  A: 1%; B: -2.0%; C: /; D: /; E: 17%[46.1 µM]; F: 12%; G: /; H: 2%[46.1 µM]

O=C(O)CC1CCC1CC(=O)O (stereo not given)
  A: -12%; B: /; C: 5%; D: /; E: 19%; F: /; G: /; H: 12%

Of the compounds above, these have a halogen.
Letters: A = 2A StopGo; B = Cruzain Triton; C = RE007 growth inh; D = SARS PLpro yeast; E = Marburg entry inh; F = Cruzain inh noDet; G = NS1 function inh; H = LASV entry inh
O=C(COc1ccc(Br)cc1)Nc1nnc(-c2cccnc2)s1
  A: -14%; B: /; C: -1%; D: -1%; E: /; F: /; G: -5%; H: /

NNC(=O)c1cc2cc(OC(F)(F)F)ccc2[nH]1
  A: 11%; B: /; C: -6%; D: -1%; E: -17%; F: /; G: 12%; H: ?

COC(=O)C=C1CCC2C3CCC4=CC(=O)C(Br)CC4(C)C3C(=O)CC12C (stereo not given)
  A: ?; B: /; C: 13%; D: /; E: 11µM*; F: /; G: /; H: ?

CCOC(=O)NC1(C(F)(F)F)NC(=O)N(c2ccc(C)c(C)c2)C1=O (stereo not given)
  A: 1%; B: -2.0%; C: /; D: /; E: 17%[46.1 µM]; F: 12%; G: /; H: 2%[46.1 µM]

Of the compounds above, five contain sulfur.
Letters: A = 2A StopGo; B = Cruzain Triton; C = RE007 growth inh; D = SARS PLpro yeast; E = Marburg entry inh; F = Cruzain inh noDet; G = NS1 function inh; H = LASV entry inh
C=CCn1c(CSc2nc3ccccc3s2)nnc1SCC(=O)OCC
  A: 4%; B: 0.2%; C: 9%; D: 1%; E: ?; F: -3%; G: -14%; H: 26%

CSc1cccc(CN(C)C(=O)C2CCC(=O)N(CCCN3CCCC3=O)C2)c1 (stereo not given)
  A: -15%; B: /; C: 7%; D: -1%; E: /; F: /; G: 6%; H: /

O=C(COc1ccc(Br)cc1)Nc1nnc(-c2cccnc2)s1
  A: -14%; B: /; C: -1%; D: -1%; E: /; F: /; G: -5%; H: /

CCOC(=O)CNC(=O)CSc1nnc(C)c(=O)[nH]1
  A: -22%; B: 2.3%; C: -2%; D: 7%; E: -3%; F: 3%; G: -7%; H: 8%

Cc1ccc(S(=O)(=O)CC(=O)Nc2nc3ccccc3s2)cc1
  A: 5%; B: /; C: -19%; D: -1%; E: ?; F: /; G: 4%; H: 12%[46.1 µM]

Next part
SMILES	2A StopGo	Cruzain Triton	RE007 growth inh	SARS PLpro yeast	Marburg entry inh	Cruzain inh noDet	NS1 function inh	LASV entry inh
CCC(C)(C)n1nnnc1C(c1ccccc1)N1CCc2ccccc2C1 (stereo not given)	?	-1.4%	32%	-1%	3%	-5%	2%	11%
COc1ccc(/C(C)=N/NC(=O)Cc2ccc(Cl)cc2)cc1	2%	/	-3%	-4%	22%	/	-4%	?
Cc1cc(C)n2nc(CC(=O)NNC(=O)c3ccccc3Cl)nc2n1	-10%	/	6%	1%	/	/	4%	/
COc1ccc(/C=C(/NC(=O)c2ccc(Br)cc2)C(=O)N2CCOCC2)cc1	50%[activator]	/	13%	2%	-16%	/	-3%	?
Cc1ccc(CC(=O)Nc2ccc(F)c([N+](=O)[O-])c2)cc1	-9%	-5.4%	-4%	-21%	8%	1%	-18%	-24%
CCOC(=O)C(=N/O)/C(C)=N/NC(=O)C(=O)Nc1cc(Cl)ccc1Cl	-20%	/	-1%	0%	?	/	-6%	6%
Fc1cccc(CCNCc2ccccn2)c1	14%	2.0%	-3%	3%	28%[46.1 µM]	0%	-7%	2%
COC(=O)c1ccc(-c2noc(CN(Cc3nccn3C)C(C)C)n2)cc1	-23%	/	-8%	-2%	8%[46.1 µM]	/	1%	5%
CC1=[N+](C)c2c(ccc3cccnc23)C1(C)C	?	/	?	-4%	?	/	-3%	5.6µM*
Cc1ccc(Nc2nc(Oc3ccc(OCc4ccccc4)nn3)nc(N3CCOCC3)n2)cc1	?	-6.3%	-2%	0%	?	?	-23%	-3%
CCCOc1ccc(CSc2nnc(CCC)n2N)cc1	-16%	7.5%	11%	-7%	12%[46.1 µM]	-10%	-6%	-1%
N#Cc1c(C(F)(F)F)cc(-c2ccccc2)[nH]c1=O	-20%	-5.0%	1%	2%	0%	-5%	5%	-10%
CCNc1nnc(CSc2nc3ccccc3s2)s1	15%	-3.7%	11%	-35%	-10%	1%	-9%	-1%
COc1ccc(OC)c(-n2c(SCC(C)=O)nnc2-c2cccc(S(=O)(=O)N(C)C)c2)c1	16%	1.4%	1%	-9%	11%[46.1 µM]	?	-8%	?
COc1cccc(-n2nnnc2SCC(=O)NCc2ccc3c(c2)OCO3)c1	-7%	1.8%	3%	3%	/	7%	-15%	/
CSc1ccc(/C=N/Nc2nc(C)cc(C)n2)cc1	10%	/	-2%	24%	4%	/	/	7.1µM*
COc1ccc(CNC(=O)c2ccccc2NS(C)(=O)=O)cc1	-4%	/	6%	0%	-5%[46.1 µM]	/	-1%	4%
O=C(Nc1ccccc1Br)c1ccccc1-c1ccccc1	-6%	-3.6%	1%	15%	?	4%	-27%	?
Cc1cc(C)c(NC(=O)Nc2csc3c2CCCC3)c(C)c1	-9%	0.7%	/	/	-26%[46.1 µM]	7%	/	/
C=CCn1c(=O)c2ccccc2n2c(SCC(=O)Nc3cc(C)on3)nnc12	-3%	7.8%	8%	0%	-3%	8%	-3%	14%
CC(=O)c1nn(-c2cccc(Br)c2)cc1C(=O)c1ccc2ccccc2c1	-20%	3.6%	13%	6%	11%	10µM*	4%	0%
COc1cccc(-c2nc(-c3ccc(NC(=O)c4cccnc4)cc3)no2)c1	?	-3.8%	-10%	-3%	?	19%	-9%	?

Screening results as filed in PubChem.

Rows are unselected, and some 4.7% of all compounds hit somewhere here.
